Source: PubChem BioAssay (Broad Institute)
FGF22 binding: FGF22 (human) thermal shift binding; Q9HCT0; recombinant FGF22 thermal shift, SYPRO orange fluorescence; percent of sucrose octasulfate shift, DMSO zero; calls only at 9.99 µM; 340,000 tested, 1.5% active;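 active = melting point raised past a set limit in the mean and every replicate; inconclusive = no clear call; three in four hits are not shown here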
Target sequence (Q9HCT0 whole entry, looked up): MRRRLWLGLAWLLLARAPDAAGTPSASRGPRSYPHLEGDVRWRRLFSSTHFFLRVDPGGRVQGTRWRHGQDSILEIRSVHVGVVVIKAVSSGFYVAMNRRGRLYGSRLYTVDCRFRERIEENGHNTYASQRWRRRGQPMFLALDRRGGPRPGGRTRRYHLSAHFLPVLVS
Ecoli rRNA inh: selective bacterial rRNA inhibition in E. coli | E. coli WT GFP vs humanized-ribosome RFP mutants, fluorescence, 24 h; stronger effect = lower value; DMSO median 0, no signal -100 | 350,000 tested, 1.6% active | GFP signal change (wild-type ribosome), % (no concentration beside the values) | AID 720706;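 active = significant combined selectivity score with lowered wild-type GFP, culture density cut under 30%, mutant RFP and density less affected; inactive = any of these conditions unmet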; note: one replicate is shown; some compounds called inactive have numbers as strong as hits
Calb FLC: C. albicans growth modulation with fluconazole; C. albicans CaCi-2 (fluconazole-resistant clinical isolate) + fluconazole, Alamar Blue growth, 48 h; growth inhibition, % (no concentration beside the values); 300,000 tested, 0.57% active; AID 1979;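 active = most replicates above 75%; inconclusive = exactly half above 75%; inactive = most below 75%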;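 note: all wells also contain fluconazole at 8 µg/ml as a sub-toxic cotreatment; 0% = median of DMSO wells and 100% = median of geldanamycin control wells; wells of about 8 µL received 7.5 nL stock; the first replicate is given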
AF4-AF9 inh: blocks AF4 peptide binding to human AF9; 350,000 tested, 0.47% active; P42568; AlphaScreen, biotin-AF4 peptide binding to FLAG-AF9; AID 651704; inhibition, % at 10 µM;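 active = every replicate reaching a set inhibition limit, whatever the replicate mean, cut at about 25% in these data; inconclusive = mean inhibition reaches that limit but some replicates miss it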;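 note: 0% = plate neutral control median and 100% = total signal loss; the record names both 10 and 1 µM as test concentration; the first replicate is given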
Target sequence (P42568 whole entry, looked up): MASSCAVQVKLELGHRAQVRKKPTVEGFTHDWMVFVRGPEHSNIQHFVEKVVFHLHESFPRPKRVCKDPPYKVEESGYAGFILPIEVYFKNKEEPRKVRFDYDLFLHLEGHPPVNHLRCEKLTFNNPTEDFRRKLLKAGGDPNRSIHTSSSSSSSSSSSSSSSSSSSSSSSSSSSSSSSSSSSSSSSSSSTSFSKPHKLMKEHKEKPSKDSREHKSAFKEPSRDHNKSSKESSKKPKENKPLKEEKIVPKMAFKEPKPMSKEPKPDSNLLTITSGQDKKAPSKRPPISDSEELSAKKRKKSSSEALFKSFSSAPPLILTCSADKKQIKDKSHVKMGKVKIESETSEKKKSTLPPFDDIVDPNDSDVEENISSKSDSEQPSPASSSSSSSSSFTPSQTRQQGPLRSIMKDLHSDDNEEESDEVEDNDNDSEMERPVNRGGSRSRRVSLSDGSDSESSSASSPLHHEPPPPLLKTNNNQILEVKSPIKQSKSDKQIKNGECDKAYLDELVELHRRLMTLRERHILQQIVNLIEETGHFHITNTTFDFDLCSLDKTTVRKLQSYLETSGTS
RanGTP-Impb inh: disruptors of Ran-importin-beta complex formation – biochemical, FRET, CFP-Ran, YFP-importin-beta, homogeneous, primary screen. 300,000 tested, 1.1% active. cell-free CFP-Ran/YFP-importin-beta FRET ratio. inhibition, % (test concentration not listed);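 active = most replicates above 15%; inconclusive = exactly half above 15%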;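 note: 0% = DMSO wells and 100% = Ran loaded with GDP instead of GTP; wells of about 40 µL received 100 nL stock; the first replicate is given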
Beta apoptosis: blocks beta cell apoptosis | INS-1E cytokine-induced death, ATP luminescence, 48 h; percent of positive-control rescue, neutral wells zero | protection from apoptosis, % (no concentration beside the values) | 300,000 tested, 0.8% active;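 active = all replicates at 75% or more, or half of them and the mean; inconclusive = half reach 75% but not the mean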;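 note: 0% = cytokine-treated negative control wells and 100% = positive control rescue; higher means more ATP so stronger rescue from cytokine killing; wells of about 40 µL received 100 nL stock; the first replicate is given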
ALR H2O2 inh: blocks human ALR sulfhydryl oxidase activity; inhibition, % (test concentration not listed); P55789; 290,000 tested, 3.8% active; purified ALR, DTT oxidation, H2O2 HRP-luminol luminescence;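 active = mean and each replicate at 75% or more; inconclusive = only one of the two met; inactive = neither met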;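 note: stock transfer was 7.5 nL into about 7.5 µL; 0% = neutral wells and 100% = wells with inactivated enzyme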
Target sequence (P55789 whole entry, looked up): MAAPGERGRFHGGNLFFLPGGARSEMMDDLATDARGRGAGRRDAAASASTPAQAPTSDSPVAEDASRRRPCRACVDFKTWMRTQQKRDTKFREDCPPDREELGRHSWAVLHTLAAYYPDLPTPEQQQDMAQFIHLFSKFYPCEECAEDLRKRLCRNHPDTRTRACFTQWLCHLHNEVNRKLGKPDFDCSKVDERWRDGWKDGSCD
T cruzi repl: T. cruzi replication inhibition; inhibition, % (concentration not given with the values); T. cruzi beta-gal in NIH3T3, luminescence, 90 h; 300,000 tested, 1.4% active;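 active = mean inhibition across valid replicates above about 55%, limit read from the data; inconclusive = mean below that limit but half or more replicates reach it; inactive = mean below it, under half of replicates reach it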;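 note: signal also drops with host cell toxicity which is not excluded here; 0% = plate median of DMSO wells and 100% = zero luminescence signal; higher percent means less beta-gal luminescence so fewer parasites; stock transfer was 50 nL into about 50 µL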
Ecoli rRNA inh OD600: also measured in Ecoli rRNA inh; calls as there; OD600 change, %; measured here: OD600 growth;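 optical density of the mix in the first replicate; 0 = DMSO median and -100 = no signal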
Ecoli rRNA inh RFP: also measured in Ecoli rRNA inh; calls as there; RFP signal change, %; measured here: RFP humanized mutant strains;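 first replicate; 0 = DMSO median and -100 = no signal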
* hit, by the source's call; i = inactive; u = inconclusive; x = no result given. A portion of the library, so the mix of outcomes need not match the whole.

SMILES | FGF22 binding | Ecoli rRNA inh | Ecoli rRNA inh OD600 | Ecoli rRNA inh RFP | Calb FLC | AF4-AF9 inh | RanGTP-Impb inh | Beta apoptosis | ALR H2O2 inh | T cruzi repl
Fc1ccccc1CSc1nnc(-c2cccs2)o1 | i | -21 | -18 | 0.3 | -15 | -54 | 0.3 | 0 | -7 | -3
CCOc1cccc2cc(C(=O)N3CCOCC3)c(=O)oc12 | i | 6 | 14 | -2.9 | -1 | 1.1 | 0.4 | -8 | -16 | 1
CNc1c([N+](=O)[O-])ncn1C | x | x | x | x | -11 | x | 2.2 | -1 | -19 | -17
Cc1ccc(S(=O)(=O)NCC(=O)OCC(=O)c2c(N)n(C)c(=O)n(C)c2=O)cc1 | i | 15 | -7 | -1.3 | 26 | 1.5 | 1.9 | -8 | -2 | 6
O=C(CCS(=O)(=O)c1cccc2nonc12)N1CCOCC1 | x | x | x | x | -4 | x | 0.3 | -6 | 0 | -1
CCC(=O)NC(/C=C/c1ccccc1)c1cc([N+](=O)[O-])c2cccnc2c1O (centres undefined) | i | 11 | 7 | -1.0 | 3 | 4.0 | -1.2 | 77* | -35 | -3
Cc1nnc(C)n1/N=C/c1c(O)ccc2ccccc12 | i | 3 | 12 | 0.6 | -6 | -2.7 | 1.8 | -3 | -35 | -13
COc1cccc(/C=C/C(=O)OCC(=O)Nc2nnc(-c3ccccc3)o2)c1 | x | x | x | x | 0 | x | 5.4 | -3 | 0 | -19
CC1CCN(C(=S)c2ccc(O)cc2)CC1 | x | x | x | x | -16 | x | 1.0 | -7 | 96* | -17
O=S(=O)(Nc1nc2ccc(S(=O)(=O)N3CCCCC3)cc2s1)c1ccccc1 | x | x | x | x | 25 | x | 0.3 | 1 | 3 | -10
COc1ccc2ccccc2c1/C=N/Nc1ccc(Cl)c(C(=O)O)c1 | i | 1 | 1 | 15 | -8 | 1.6 | 1.5 | -3 | x | -8
Cc1ccc(NC(=O)c2ccccc2CCc2ccccc2)c(C)c1 | x | x | x | x | -21 | x | -1.8 | 6 | -3 | 23
FC(F)(F)Oc1ccccc1-c1nnc(-c2cccc(C(F)(F)F)c2)o1 | i | 2 | 9 | 2.2 | -4 | -5.8 | -0.5 | x | x | x
N#Cc1cccc(NC(=O)CN2CCN(Cc3ccccc3)CC2)c1 | i | -4 | -4 | 1.7 | -4 | -3.0 | 2.2 | -5 | -40 | 19
CC(C)c1ccc(NC(=O)CCCN2C(=S)NC(C)(C)CC2C)cc1 (centres undefined) | i | -6 | -15 | 2.5 | -11 | -5.3 | 2.4 | -5 | 1 | 6
CCOc1ccccc1/C=C\c1nc(O)c([N+](=O)[O-])c(=O)[nH]1 | i | 4 | 2 | -5.0 | -4 | 0.2 | -1.2 | -5 | 44 | 2
CC(NC(=S)Nc1ccc(Cl)cc1Cl)C(c1cccs1)N1CCCC1 (centres undefined) | i | -18 | -40 | 16 | -35 | -1.2 | -0.5 | 0 | 2 | 32
Cc1nn(C)c(Sc2ccccn2)c1[N+](=O)[O-] | i | 7 | 18 | 4.5 | -3 | -2.3 | 2.4 | -3 | 1 | -7
Cc1ccc(NS(=O)(=O)c2ccc(NC(=O)c3ccc(Br)o3)cc2)c(C)c1 | x | x | x | x | 11 | x | -1.8 | 12 | -7 | 28
Cc1c(NC(=O)CCc2ccccc2)cccc1[N+](=O)[O-] | x | 2 | 4 | -0.5 | -29 | 0.0 | u | -7 | -5 | 6
COc1ccc(Cn2c(=O)[nH]c3cc(C(=O)N4CCN(Cc5ccccc5)CC4)ccc3c2=O)cc1 | x | x | x | x | 17 | x | 5.0 | 5 | -1 | 15
COc1ccccc1-n1c(SCC(=O)NCc2ccc3c(c2)OCO3)nc2cc([N+](=O)[O-])ccc21 | i | -9 | -15 | -12 | -30 | 12 | 1.3 | 7 | -6 | 8
NC(=O)c1ccccc1NC(=O)COC(=O)C1(c2ccccc2)CC1 | i | -11 | -14 | -2.4 | 21 | 3.3 | 5.3 | x | x | 10
Cc1ccc2c(c1)nnn2C1CCN(C(=O)Nc2ccccc2C)CC1 | i | -9 | -13 | -2.9 | -10 | -2.5 | 2.5 | -1 | -3 | 2
COCc1c(C(=O)OCc2nc3ccsc3c(=O)[nH]2)oc2ccccc12 | i | 1 | 16 | 4.3 | x | 1.6 | x | -3 | -4 | x

Next records:
SMILES | FGF22 binding | Ecoli rRNA inh | Ecoli rRNA inh OD600 | Ecoli rRNA inh RFP | Calb FLC | AF4-AF9 inh | RanGTP-Impb inh | Beta apoptosis | ALR H2O2 inh | T cruzi repl
O=C(Cn1c(=O)c2cccn2c2cccnc21)N1CCN(c2ccc(Cl)cc2)CC1 | x | x | x | x | 2 | x | 4.7 | -4 | 4 | -4
CCC(C)c1ccc(OCCN2CCCC2)cc1 (centres undefined) | x | x | x | x | -5 | x | -1.1 | -10 | -12 | 20
O=[N+]([O-])c1ccc(N2N=C(c3ccco3)CC2c2ccccc2)cc1 (centres undefined) | x | x | x | x | -5 | x | -47 | 13 | 0 | 13
Cc1ccc(C#CC[N+]2(C)CCCCC2)cc1 | i | 3 | 2 | -0.3 | 1 | -6.9 | 1.8 | 2 | -4 | 1
O=C(Cc1ccc(Br)cc1)N1CCc2ccccc2C1 | i | -2 | -14 | -4.2 | -19 | -4.5 | 4.5 | -3 | x | 6
O=C(NNC(=S)Nc1ccccc1)c1cccc(S(=O)(=O)N2CCOCC2)c1 | i | 15 | -11 | -0.6 | 21 | 1.2 | 4.8 | -2 | 70 | 5
COc1ccc(-c2nc(CS(=O)CC(=O)NC3CCCC(C)C3C)c(C)o2)cc1OC (centres undefined) | i | -18 | -20 | -3.9 | -17 | 1.5 | 6.7 | -12 | 99* | 9
Cc1ccc(C(=O)NC2CCCc3ccccc32)o1 (centres undefined) | x | x | x | x | 2 | x | 0.3 | -6 | -12 | -10
Cc1ccc(CNC(=O)c2ccc(N3CCC4(CC3)CC(c3cccc(Br)c3)=NO4)c(NC(=O)c3ccccc3)c2)cc1 | i | 9 | 13 | 1.2 | 1 | -3.8 | 0.5 | 4 | x | 20
CCOc1ccc(OCC)c(NC(=O)CCn2cccc2)c1 | x | x | x | x | -1 | x | 1.4 | -11 | x | 11
COCCN1C(=O)C(=O)/C(=C(/O)c2cccc(OC)c2)C1c1ccncc1 (centres undefined) | x | x | x | x | -6 | x | -1.7 | -4 | -2 | -2
N#CC(C#N)=c1ccc2c(c1)N1C(c3ccccc3)=CC(c3ccccc3)C3CCCCC31N=2 (centres undefined) | i | 9 | 7 | 11 | 15 | -0.4 | 0.0 | 0 | 10 | -12
CCc1cc(CNC(=O)CC2C(=O)NCCN2Cc2ccc(-c3ccccc3)cc2)on1 (centres undefined) | i | 0 | 0 | -1.0 | 12 | 1.5 | 4.2 | 2 | -5 | 26
CCn1c(SCC(=O)Nc2cc(C)on2)nnc1-c1cccs1 | x | x | x | x | -6 | x | -5.4 | 2 | 1 | 7
O=C(NCc1cccc2ccccc12)Nc1ccccc1 | i | 3 | -2 | -3.1 | -31 | -4.2 | -0.3 | -9 | 20 | 10
Cc1ccc(Nc2nc(N3CCOCC3)c3ccccc3n2)cc1 | x | x | x | x | -17 | x | -0.4 | 22 | 33 | 26
CSC1=NCCN1C(=O)c1cccs1 | i | 11 | 7 | -1.0 | 4 | -3.7 | -2.7 | 1 | 0 | -9
COCCC(=O)N1CCC(Oc2ccc(C(=O)NCc3cc(C)n(C)n3)cc2)CC1 | i | -1 | 3 | -3.0 | 13 | -3.5 | 6.3 | -4 | -1 | -12
CC(=O)C1=C(O)C(=O)N(Cc2cccnc2)C1c1ccc(Cl)cc1Cl (centres undefined) | x | x | x | x | 17 | x | 0.7 | -8 | 1 | 1
Cc1ccc(NS(=O)(=O)c2ccc(NC(=O)N3CCCCC3)cc2)cc1 | i | -11 | -13 | 3.3 | 12 | -1.8 | 0.4 | 8 | 0 | -12
CC(Oc1ccc2c(-c3ccccc3)cc(=O)oc2c1)C(=O)NCCCn1ccnc1 (centres undefined) | i | -1 | -11 | 14 | 3 | 1.1 | 1.8 | x | -23 | 46
Cc1ccc(N(C(=O)C2COc3ccccc3O2)C(C(=O)NC2CCCCC2)c2cn(C)nc2C)cc1 (centres undefined) | x | x | x | x | -2 | x | 5.9 | 0 | -71 | 16
Cc1cc(C)n2nc(C(=O)Nc3cccc(S(=O)(=O)N(C)c4ccccc4)c3)nc2n1 | i | -26* | -12* | 10* | -28 | -6.4 | 0.2 | -1 | x | 5
CCNC(=O)CSc1nc2ccccc2c(=O)n1-c1cccc(OC)c1 | i | 0 | 4 | -2.3 | 26 | -1.9 | u | -3 | x | -4
CC(C)(C)c1ccc(S(=O)(=O)NCC(=O)N2CCN(C(=O)c3ccco3)CC2)cc1 | x | x | x | x | 3 | x | 21* | -3 | -1 | -5

More compounds.
SMILES | FGF22 binding | Ecoli rRNA inh | Ecoli rRNA inh OD600 | Ecoli rRNA inh RFP | Calb FLC | AF4-AF9 inh | RanGTP-Impb inh | Beta apoptosis | ALR H2O2 inh | T cruzi repl
Cc1ccc(NS(=O)(=O)c2ccc3c(c2)NC(=O)C(C)C(=O)N3)cc1C (centres undefined) | i | 7 | -14 | -1.8 | 1 | 0.9 | -4.9 | 4 | -2 | -16
O=C(CN1CCN(c2ccc(Cl)cc2)CC1)Nc1ccc(F)c(F)c1 | x | x | x | x | -2 | x | 0.5 | x | 6 | -1
CCOC(=O)c1[nH]c(C)c(C(=O)OCC(=O)NC(=O)NC(C)(C)C)c1C | x | x | x | x | -5 | x | -0.7 | -8 | 0 | 3
OC(CN1C2=NCCCN2c2ccccc21)c1ccc2c(c1)OCO2 (centres undefined) | x | x | x | x | -3 | x | u | -2 | -3 | 1
CC(O)c1nc(C(C)O)n(CC(=O)c2ccccc2)n1 (centres undefined) | i | 7 | 1 | 8.9 | -1 | -17 | 4.3 | -15 | 8 | 13
CCOc1ccc(NC(=O)c2c(N)n(C)c(=O)[nH]c2=O)cc1 | x | x | x | x | -12 | x | 2.8 | -3 | -14 | -11
COc1ccc(C)cc1S(=O)(=O)N(C)CC(=O)NC1CC1 | x | x | x | x | 2 | x | u | -1 | -5 | 8
Cc1cc(C)nc(SCc2nc3ncccn3c2Br)n1 | x | x | x | x | 8 | x | -1.0 | -3 | 3 | x
Cc1ccc(NC(=O)CCC(=O)NNC(=O)c2cccs2)c(C)c1 | x | x | x | x | 1 | x | 3.7 | -2 | -17 | -18
CCCCOc1ccc(CN=C(N)N)cc1Cl | i | -51 | -53 | -9.2 | -1 | x | 0.5 | 36 | -12 | 6
COc1ccc(C(=O)O/N=C(/c2cccs2)C(C)(C)C)cc1 | i | -52 | -82 | -14 | -2 | x | -1.1 | x | x | -5
CCOc1ccc(-n2nc3c(=S)[nH]nc(C)c3c2C)cc1 | x | x | x | x | -10 | x | -79 | -6 | -3 | 17
Cc1cc(N2C(=O)C(O)=C(C(=O)c3ccco3)C2c2cccc(Cl)c2)no1 (centres undefined) | i | -32* | -23* | -1.8* | 35 | -0.5 | 4.9 | 6 | 14 | -29
CCOCCCNC(=O)C(NC(=O)Cc1cccs1)c1ccc(C)cc1 (centres undefined) | i | 5 | -3 | -1.7 | -5 | -0.7 | 1.9 | -1 | x | -8
